Bioassay records as filed in PubChem.
HNF4A DNA FP – change in binding of human HNF4A to DNA, primary screen, biochemical, fluorescence polarization, FITC-DNA | Hepatocyte nuclear factor 4-alpha (Homo sapiens), P41235 | 1 h | activity change, % at 10 µM | actives 0.3% (n = 360,000) | AID 1224865, 2016; in the data active = activity change above about 30%, passing the limit was not always enough;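 note: controls were the assay level and a saturating level of protein; the project sought stronger binding though the title names inhibitors; some compounds called inactive have numbers as strong as hits; positive values seem to mean higher polarization but the record does not say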
LANA-H2A inh – blockers of LANA interaction with H2A/H2B – biochemical, FP readout, HTS, primary screen | cell-free LANA-H2A/H2B peptide, fluorescence polarization | inhibition, % (no concentration beside the values) | actives 0.6% (n = 320,000); in the data active = inhibition mostly above about 10%, no sharp cut-off; inactive = mostly below about 6.7%;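 note: stock transfer was 7.5 nL into about 10 µL; 0% = median of vehicle wells and 100% = median of positive control wells; one replicate is shown; the record names a cut of 25% in any replicate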
B2AR ag – beta2AR agonists driving receptor internalization, primary screen, cell-based, FAP fluorogen, flow cytometry; Beta-2 adrenergic receptor (Homo sapiens), P07550; actives 0.43% (n = 340,000); response, % (test concentration not listed); Am2.2-beta2AR cells; reference of the scale not given here;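 active = response above a set limit, near 3 SD of response in nonfluorescent compounds, cut at about 42% in these data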;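 note: stock transfer was 100 nL into about 11 µL; a reference agonist was the positive control; negative values mostly stem from fluorescent compounds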
Target sequence (P07550 whole entry, looked up): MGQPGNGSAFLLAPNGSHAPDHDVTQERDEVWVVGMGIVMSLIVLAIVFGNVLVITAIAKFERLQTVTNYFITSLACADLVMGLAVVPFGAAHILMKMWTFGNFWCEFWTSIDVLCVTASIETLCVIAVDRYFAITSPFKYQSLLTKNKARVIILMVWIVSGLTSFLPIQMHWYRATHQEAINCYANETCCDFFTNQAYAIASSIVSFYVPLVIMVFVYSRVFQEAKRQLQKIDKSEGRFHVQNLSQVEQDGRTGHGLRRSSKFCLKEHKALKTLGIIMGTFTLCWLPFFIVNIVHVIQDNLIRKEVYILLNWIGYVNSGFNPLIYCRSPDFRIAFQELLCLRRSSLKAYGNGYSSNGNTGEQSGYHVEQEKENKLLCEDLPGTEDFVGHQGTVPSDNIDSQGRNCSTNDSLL
Vif A3G – inhibitors of Vif binding to APOBEC3G peptide, primary screen, biochemical, TR-FRET, GST-Vif 1-94, biotin-A3G peptide, dose response retest (AID 1117319); inhibition, %; hits with a dose series show IC50 in µM; Virion infectivity factor (Human immunodeficiency virus type 1 group M subtype B (isolate …; actives 0.57% (n = 260,000); TR-FRET GST-Vif / biotin-A3G peptide binding; higher % means a stronger effect; test concentration not given here; strong numbers were not always called active;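 active = above the screen mean plus three standard deviations and confirmed in dose response; inconclusive = results disagree or hit not tested in dose response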;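 note: Vif residues 1-94 fused to GST binding biotinylated APOBEC3G peptide 110-148; 0% = full assay without inhibitor and 100% = GST in place of GST-Vif; retest series ran down from 100 µM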
ALR H2O2 inh – inhibitors of human ALR sulfhydryl oxidase, primary screen, biochemical, H2O2 detection, HRP-luminol luminescence, single point. actives 3.8% (n = 290,000). purified ALR, DTT oxidation. inhibition, % (no concentration beside the values). FAD-linked sulfhydryl oxidase ALR (Homo sapiens), P55789;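 active = mean and each replicate at 75% or more; inconclusive = only one of the two met; inactive = neither met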;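 note: stock transfer was 7.5 nL into about 7.5 µL; 0% = neutral wells and 100% = wells with inactivated enzyme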
Target sequence (P55789 whole entry, looked up): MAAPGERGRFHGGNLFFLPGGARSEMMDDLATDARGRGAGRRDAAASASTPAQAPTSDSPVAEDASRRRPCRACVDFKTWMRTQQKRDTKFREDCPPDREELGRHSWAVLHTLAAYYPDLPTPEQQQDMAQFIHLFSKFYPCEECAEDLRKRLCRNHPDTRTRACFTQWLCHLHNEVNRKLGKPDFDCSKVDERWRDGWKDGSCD
RanGTP-Imp inh – inhibitors of RanGTP-importin-beta interaction, primary screen, biochemical, FRET, CFP-Ran, YFP-importin-beta, homogeneous; cell-free CFP-Ran/YFP-importin-beta FRET ratio; inhibition, % (concentration not given with the values); actives 1.1% (n = 300,000);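 active = most replicates above 15%; inconclusive = exactly half above 15%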;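 note: 0% = DMSO wells and 100% = Ran loaded with GDP instead of GTP; wells of about 40 µL received 100 nL stock; the first replicate is given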
Calb FLC – C. albicans growth inhibition with fluconazole, primary screen, CaCi-2 strain, Alamar Blue fluorescence | C. albicans CaCi-2 (fluconazole-resistant clinical isolate) + fluconazole, 48 h | growth inhibition, % (concentration not given with the values) | actives 0.57% (n = 300,000) | AID 1979, 2009;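 active = most replicates above 75%; inconclusive = exactly half above 75%; inactive = most below 75%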;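 note: all wells also contain fluconazole at 8 µg/ml as a sub-toxic cotreatment; 0% = median of DMSO wells and 100% = median of geldanamycin control wells; wells of about 8 µL received 7.5 nL stock; the first replicate is given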
* = called active by the depositor; & = joins results of further samples.

Results for COc1ccc(-c2csc(NC(CO)c3nc4ccccc4n3CCCO)n2)cc1 (stereo not given) ?
HNF4A DNA FP: 4.3; LANA-H2A inh: -4.1; B2AR ag: -6; ALR H2O2 inh: 70; RanGTP-Imp inh: 1.0; Calb FLC: -6

Results for Cc1cc(C)nc(NC(=O)c2cc3ccccc3o2)n1 ?
HNF4A DNA FP: 1.6; LANA-H2A inh: -0.1; B2AR ag: 4; Vif A3G: -1%; ALR H2O2 inh: -3; RanGTP-Imp inh: 2.8; Calb FLC: 15

What do the screens show for `Cn1c(=O)c2c(=O)cc(NNC(=O)CC#N)[nH]c2n(C)c1=O`?
HNF4A DNA FP: 0.5; LANA-H2A inh: 1.1; B2AR ag: -3; Vif A3G: -1%; ALR H2O2 inh: 2; RanGTP-Imp inh: 5.3; Calb FLC: -1

Results for Cn1cc(Cl)c(C(=O)Nc2cccc(Cl)c2Cl)n1 ?
HNF4A DNA FP: -2.5; LANA-H2A inh: 3.7; B2AR ag: -9; Vif A3G: 1%; ALR H2O2 inh: 3; RanGTP-Imp inh: 0.7; Calb FLC: -4

How did CCC(CC)C(=O)NCc1ccc(OC)cc1 do in these assays?
HNF4A DNA FP: -0.4; LANA-H2A inh: -1.2; B2AR ag: 3; ALR H2O2 inh: -30; RanGTP-Imp inh: 7.1; Calb FLC: -4

Results for O=C(CN1C(=O)c2ccccc2S1(=O)=O)NCc1ccccn1 ?
HNF4A DNA FP: -1.3; LANA-H2A inh: -3.1; B2AR ag: 2; Vif A3G: 15%; ALR H2O2 inh: 3; RanGTP-Imp inh: 1.3; Calb FLC: -8

How did O=C(CN(Cc1ccccc1)C(=O)CCC(=O)Nc1nccs1)NCc1ccccc1 do in these assays?
HNF4A DNA FP: -2.6; LANA-H2A inh: 3.1; B2AR ag: -7; ALR H2O2 inh: -5; RanGTP-Imp inh: 5.1; Calb FLC: 8

What do the screens show for `C/C(=N/NS(=O)(=O)c1ccc(C)cc1)c1c[nH]c2ccccc12`?
HNF4A DNA FP: -0.9; LANA-H2A inh: -5.7; B2AR ag: -1; ALR H2O2 inh: 57; RanGTP-Imp inh: -0.5; Calb FLC: 12

What do the screens show for `CCC(C)C(NC(=O)c1ccccc1NC(=O)c1ccccc1)C(=O)O` (stereo not given)?
HNF4A DNA FP: 1.0; LANA-H2A inh: 0.8; B2AR ag: 6; Vif A3G: -3%; ALR H2O2 inh: 1; RanGTP-Imp inh: -0.6; Calb FLC: 7

How did CCN(CC)Cc1c(C(=O)N/N=C/c2ccc(C)o2)nnn1-c1nonc1N do in these assays?
HNF4A DNA FP: 0.4; LANA-H2A inh: -2.7; B2AR ag: -9; ALR H2O2 inh: -6; RanGTP-Imp inh: -1.9; Calb FLC: -7

Results for Cc1ccc(/C=C2\SC(=S)N(CCC(=O)Nc3ccc(O)cc3)C2=O)cc1 ?
HNF4A DNA FP: 0.6; LANA-H2A inh: 2.1; B2AR ag: -3; Vif A3G: -3%; ALR H2O2 inh: -14; RanGTP-Imp inh: -0.5; Calb FLC: -7

How did COc1ccc(S(=O)(=O)Nc2c(C(=O)O)[nH]c3ccccc23)cc1 do in these assays?
HNF4A DNA FP: 1.1; LANA-H2A inh: -1.4; B2AR ag: -6; ALR H2O2 inh: 91*; RanGTP-Imp inh: 0.3

What do the screens show for `Cc1nnsc1C(=O)NNc1ccc(C(C)C)cc1`?
HNF4A DNA FP: 2.5; LANA-H2A inh: 1.1; B2AR ag: 11; Vif A3G: 8%; ALR H2O2 inh: 20; RanGTP-Imp inh: -2.7; Calb FLC: -3

Results for CCCn1c(=O)c2sccc2n2c(CCCC(=O)NCC3CCCO3)nnc12 (stereo not given) ?
HNF4A DNA FP: -1.8; LANA-H2A inh: -0.5; B2AR ag: -4; ALR H2O2 inh: -3; RanGTP-Imp inh: -1.8; Calb FLC: 1

How did Cc1ccc(N(CC(=O)Nc2ccccc2C(=O)NCc2ccco2)S(=O)(=O)c2ccccc2)cc1C do in these assays?
HNF4A DNA FP: -2.3; LANA-H2A inh: -1.4; B2AR ag: 0; Vif A3G: 3%; ALR H2O2 inh: 96*; RanGTP-Imp inh: -1.3; Calb FLC: -2

Results for COC(=O)c1c(C)[nH]c(C(=O)CSc2ccc(Cl)cc2)c1C ?
HNF4A DNA FP: 0.3; LANA-H2A inh: -1.7; B2AR ag: -2; Vif A3G: 75%; ALR H2O2 inh: -10; RanGTP-Imp inh: -3.6; Calb FLC: 10

What do the screens show for `CCc1nnc(NC(=O)CSc2nc3[nH]c(=O)cc(O)c3s2)s1`?
HNF4A DNA FP: 1.2; LANA-H2A inh: 3.4; B2AR ag: -1; ALR H2O2 inh: 99*

Results for CCCCOc1ccc(-c2[nH]ncc2C=O)cc1 ?
HNF4A DNA FP: -0.3; LANA-H2A inh: 7.2; B2AR ag: -14; Vif A3G: inconclusive; ALR H2O2 inh: -17; RanGTP-Imp inh: -2.4; Calb FLC: 3

Results for CCN(CC)S(=O)(=O)c1ccc(C(=O)NNC(=O)c2csc(N3CCOCC3)n2)cc1 ?
HNF4A DNA FP: 2.6; LANA-H2A inh: -1.3; B2AR ag: -2; Vif A3G: 4%; ALR H2O2 inh: -6; RanGTP-Imp inh: 3.1; Calb FLC: 2

What do the screens show for `O=C(O)CCSCC(=O)c1ccc2c(c1)OCCO2`?
HNF4A DNA FP: 0.7; LANA-H2A inh: -1.9; B2AR ag: 4; Vif A3G: 5%; ALR H2O2 inh: 98*; RanGTP-Imp inh: 6.3; Calb FLC: 3

What do the screens show for `Cc1ccc(S(=O)(=O)N2CCCCC2)cc1C(=O)N1CCCCCC1`?
HNF4A DNA FP: 0.4; LANA-H2A inh: 9.3; B2AR ag: -7; Vif A3G: -1%; ALR H2O2 inh: -8

What do the screens show for `Cc1ccc(C(C)C)c(OCc2ccc(C(=O)N/N=C/c3cccc(O)c3O)cc2)c1`?
HNF4A DNA FP: 3.6; LANA-H2A inh: inactive; B2AR ag: 21; Vif A3G: 24%; ALR H2O2 inh: -1; RanGTP-Imp inh: -4.8; Calb FLC: 87*

How did Cc1ccc(C2/C(=C(/O)c3ccc(Cl)cc3)C(=O)C(=O)N2CC2CCCO2)o1 (stereo not given) do in these assays?
HNF4A DNA FP: -3.5; LANA-H2A inh: 5.0; B2AR ag: -1; Vif A3G: 10%; ALR H2O2 inh: 56; RanGTP-Imp inh: 1.8; Calb FLC: -3

What do the screens show for `CC(NC(=O)COC(=O)C12CC3CC(CC(Br)(C3)C1)C2)c1ccccc1` (stereo not given)?
HNF4A DNA FP: 0.6; LANA-H2A inh: 3.3; B2AR ag: -2; Vif A3G: -8%; ALR H2O2 inh: -1

How did CC(C)(C)C(Cn1ccnc1)NC(=O)c1ccc2nc(C3CC3)oc2c1 (stereo not given) do in these assays?
HNF4A DNA FP: 1.3; LANA-H2A inh: -3.0; B2AR ag: -6; Vif A3G: -6%; ALR H2O2 inh: -3; RanGTP-Imp inh: -4.8; Calb FLC: -10

What do the screens show for `COC(=O)C1CCCN1S(=O)(=O)c1ccccc1NC(=O)c1cc(OC)c(OC)c(OC)c1` (stereo not given)?
HNF4A DNA FP: -0.5; LANA-H2A inh: 0.7; B2AR ag: 9; Vif A3G: -7%; ALR H2O2 inh: -2; RanGTP-Imp inh: inconclusive; Calb FLC: 17

Results for c1ccc(CN2CCC(Nc3nc(-c4ccccc4)nc4ccccc34)CC2)cc1 ?
HNF4A DNA FP: -1.3; LANA-H2A inh: 4.9; B2AR ag: 19; Vif A3G: -1%; ALR H2O2 inh: -22; RanGTP-Imp inh: 3.5; Calb FLC: -2

Results for CCn1cnc2cc(NCc3ccc(Cl)cc3)ccc21 ?
HNF4A DNA FP: -2.8; LANA-H2A inh: 0.4; B2AR ag: 3; ALR H2O2 inh: 68; RanGTP-Imp inh: inconclusive; Calb FLC: -2

How did COc1ccc(N=Cc2cc(Cc3ccccc3Cl)cc([N+](=O)[O-])c2O)cc1OC do in these assays?
HNF4A DNA FP: -3.1; LANA-H2A inh: -1.9; B2AR ag: 19; Vif A3G: 7%; ALR H2O2 inh: -6; RanGTP-Imp inh: 16*; Calb FLC: inconclusive

What do the screens show for `CN(C)c1cc[n+](CC(=O)Nc2cc(C(F)(F)F)ccc2Cl)cc1`?
HNF4A DNA FP: 1.7; LANA-H2A inh: 5.2; B2AR ag: -2; Vif A3G: inconclusive; ALR H2O2 inh: -5; RanGTP-Imp inh: 3.9; Calb FLC: -10

How did COc1cc2c(cc1OC)C(C(C)C)=NC(C)(C)C2 do in these assays?
HNF4A DNA FP: 4.6; LANA-H2A inh: 0.3; B2AR ag: 5; Vif A3G: 8%; ALR H2O2 inh: -4; RanGTP-Imp inh: -4.1; Calb FLC: 1

How did O=C(c1ccccc1)c1cccc(C(=O)c2ccccc2)c1 do in these assays?
HNF4A DNA FP: 2.2; B2AR ag: -8; Vif A3G: 5%; ALR H2O2 inh: 0

Results for Cc1ccc(S(=O)(=O)N(C)C)cc1NC(=O)C(C)OC(=O)C1CCC1 (stereo not given) ?
HNF4A DNA FP: 1.4; LANA-H2A inh: -1.5; B2AR ag: -5

How did Cc1ccc(OCC(=O)Nc2ccc(-c3nc4ncccc4o3)cc2)c(C)c1 do in these assays?
HNF4A DNA FP: 0.7; LANA-H2A inh: -2.7; B2AR ag: 116*; Vif A3G: -9%&-2%; ALR H2O2 inh: -2; RanGTP-Imp inh: 0.2; Calb FLC: 1

Results for Cn1c(SCc2c(F)cccc2Cl)nnc1-c1cccs1 ?
HNF4A DNA FP: -1.4; LANA-H2A inh: 4.0; B2AR ag: 0; Vif A3G: 2%; ALR H2O2 inh: -10; RanGTP-Imp inh: 1.8; Calb FLC: 11

What do the screens show for `O=C(NCCc1c[nH]c2ccccc12)C(=O)NCC1OCCCN1S(=O)(=O)c1cc(F)ccc1F` (stereo not given)?
HNF4A DNA FP: -0.3; LANA-H2A inh: -5.2; B2AR ag: 2; Vif A3G: 1%; ALR H2O2 inh: 9; RanGTP-Imp inh: -3.4; Calb FLC: 33

What do the screens show for `NC(=O)c1ccc(NCCCN2CCOCC2)c([N+](=O)[O-])c1`?
HNF4A DNA FP: -0.2; LANA-H2A inh: -3.1; B2AR ag: -1; Vif A3G: 23%; ALR H2O2 inh: -12; RanGTP-Imp inh: 1.5; Calb FLC: -13

Results for Cc1ccc(CNS(=O)(=O)c2ccc(CN3C(=O)c4cccnc4C3=O)cc2)o1 ?
HNF4A DNA FP: -0.6; LANA-H2A inh: 2.6; B2AR ag: -13; ALR H2O2 inh: 6; RanGTP-Imp inh: -1.2; Calb FLC: 23

Results for CCOc1cc(S(=O)(=O)N2CCCCC2)ccc1Cl ?
HNF4A DNA FP: -7.8; LANA-H2A inh: 2.8; B2AR ag: -11; Vif A3G: 1%; ALR H2O2 inh: -7; RanGTP-Imp inh: -2.0; Calb FLC: 2

What do the screens show for `Nc1nc(N)c2cc(Sc3ccc4ccccc4c3)ccc2n1`?
HNF4A DNA FP: 4.6; LANA-H2A inh: -3.1; B2AR ag: 30; Vif A3G: 11%; ALR H2O2 inh: -7; RanGTP-Imp inh: 0.3; Calb FLC: 100*
